EPAC2 ant val – validation of human EPAC2 antagonists; EPAC2 Rap1B BODIPY-GDP exchange, fluorescence; AID 1645886; Q8WZA2; 16,000 compounds, 1.7% hits; Potency, µM (titrated, usually from 112 µM), for inactives: top-dose activity, negative = inhibition, actives largely listed as inhibitors; active = well fitted inhibition curve with a large enough effect; inconclusive = small, poorly fitted or top-dose-only effect; inactive = no such curve, though single readings can be large or run the other way;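 also: 100% = activation by cAMP agonist control; nearly all actives have a fitted effect of over 40% in size; the record reuses the description of the EPAC1 agonist screen; inactives centre near -10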
Target sequence (Q8WZA2 whole entry, looked up): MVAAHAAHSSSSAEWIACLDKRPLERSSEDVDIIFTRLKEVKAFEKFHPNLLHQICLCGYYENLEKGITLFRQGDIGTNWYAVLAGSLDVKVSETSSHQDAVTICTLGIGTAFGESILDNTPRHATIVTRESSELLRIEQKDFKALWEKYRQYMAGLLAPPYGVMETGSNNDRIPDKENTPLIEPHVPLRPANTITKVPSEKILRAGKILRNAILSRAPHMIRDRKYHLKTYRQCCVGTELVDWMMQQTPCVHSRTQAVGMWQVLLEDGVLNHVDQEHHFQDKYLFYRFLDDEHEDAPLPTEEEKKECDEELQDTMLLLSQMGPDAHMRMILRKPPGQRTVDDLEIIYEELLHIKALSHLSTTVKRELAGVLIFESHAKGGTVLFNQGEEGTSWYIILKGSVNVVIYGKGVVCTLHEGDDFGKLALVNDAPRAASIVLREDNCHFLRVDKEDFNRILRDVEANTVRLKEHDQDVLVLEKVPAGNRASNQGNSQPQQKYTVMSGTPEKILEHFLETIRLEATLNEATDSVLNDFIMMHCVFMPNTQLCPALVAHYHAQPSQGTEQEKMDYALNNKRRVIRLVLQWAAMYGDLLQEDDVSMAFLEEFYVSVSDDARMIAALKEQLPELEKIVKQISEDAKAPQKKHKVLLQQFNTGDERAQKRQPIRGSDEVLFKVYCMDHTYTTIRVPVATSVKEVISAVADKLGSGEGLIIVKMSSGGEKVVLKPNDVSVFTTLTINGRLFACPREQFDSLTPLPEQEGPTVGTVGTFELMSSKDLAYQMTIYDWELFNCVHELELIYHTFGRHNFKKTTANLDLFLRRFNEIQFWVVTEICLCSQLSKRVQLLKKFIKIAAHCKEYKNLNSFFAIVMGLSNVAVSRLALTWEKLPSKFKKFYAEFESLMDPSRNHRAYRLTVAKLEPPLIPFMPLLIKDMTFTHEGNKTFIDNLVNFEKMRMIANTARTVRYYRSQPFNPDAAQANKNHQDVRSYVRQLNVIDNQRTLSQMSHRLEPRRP
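Normalized against a 6.5 mM cAMP agonist control, compounds were tested on 100 nM EPAC2 exchanging Rap1B-bound BODIPY-GDP (250 nM) for 50 uM GDP. Fluorescence drop (ex 480, em 540 nm) was tracked at room temperature over 30 min at 5-min intervals.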
* marks the source's active call; other numbers are inactive results; u = inconclusive; & = joins results of further samples; [ ] = dose if it differs, or a comment. Potency is read from the fitted curve at half-maximal effect. Not all compounds are listed. The share of hits here may be higher or lower than overall.

SMILES | EPAC2 ant val
C[C@@H]1O[C@@H]1P(=O)(O)O | -11%
NS(=O)(=O)c1cc(Cl)c(Cl)c(S(N)(=O)=O)c1 | 6%[56.6 µM]
c1cc(NC2CC2)nc(-c2ccoc2)n1 | -10%
CCCCCCCCN1[C@@H](CC(=O)OC)c2cc(F)ccc2S1(=O)=O | u
O=C(c1cn(CC2CCCN(Cc3cc4ccccc4s3)C2)nn1)N1CCCC1 (stereo unspecified) | -19%
O=C(CCN1CCN2CCCC2C1)N1c2ccccc2Sc2ccc(Cl)cc21 (stereo unspecified) | 15%
COc1ccc2c(c1)NC(=O)C2CC(=O)N1CCOc2c(cc(-c3cnc4ccccc4c3)cc2OC)C1 (stereo unspecified) | -30%
CC1(C)CCCC2(C)C3C(O)CC2(C)C(O)C31 (stereo unspecified) | -4%
Cc1cccc(CNc2cc(-c3ccccc3C)ncn2)c1 | u
CC(Oc1ccc(O)cc1)(P(=O)(O)O)P(=O)(O)O | -2%
Cc1nc(C)c(C(=O)N2CCc3c(cnc(C)c3CNC(=O)c3cncs3)C2)s1 | -3%
Cn1c(=O)c(CCc2ccccc2)nc2cncnc21 | u
Oc1cccc(O)c1 | u
COC(=O)c1cccc(C(=O)N2CCc3c(C(=O)OC)c(OCc4ccccn4)cc(=O)n3CC2)c1 | 3%
O=C1CCN(Cc2ccc([N+](=O)[O-])cc2)CCN1CCO | 1%

Next section:
SMILES | EPAC2 ant val
COc1cc(/C=C/C(=O)c2c(O)cc(C)oc2=O)ccc1O | 15%
CCN1/C(=C/C=C/c2sc3ccccc3[n+]2CC)Sc2ccccc21 | u
COc1ccc(CNc2ncncc2-c2ccccc2Cl)c(OC)c1 | u
COCC(C)NCc1cc2ccc(OC)cc2nc1N1CCN(c2ccc(F)cc2)CC1 (stereo unspecified) | -13%
CCNc1ncc2nc(CCc3ccccc3)c(=O)n(CCOC)c2n1 | -15%
O=c1c(-c2ccccc2)nc2cnc(N3CCNCC3)nc2n1Cc1ccc(F)cc1 | -14%
CNC(C)C1CC[C@H](N)[C@@H](OC2C(N)C[C@H](N)[C@@H](OC3OC[C@](C)(O)C(NC)[C@H]3O)C2O)O1 (stereo partly specified) | -13%
Nc1ncnc2[nH]c(=O)[nH]c12 | -5%
COC(=O)CCC(=O)CN | -14%
CCOC(=O)COc1ccc2c(C)c(CCN(CC)CC)c(=O)oc2c1Cl | -26%
O=c1[nH]c(=O)n(C2CC(O)C(CO)O2)cc1C(F)(F)F (stereo unspecified) | -4%
COC(=O)c1c(OCc2cccnc2)cc(=O)n2c1CCN(C(=O)c1ccc(OC)c(F)c1)CC2 | 6%
CNC(=O)[C@@H]1C[C@H](Sc2nc3ccccc3[nH]2)CN1Cc1ccccc1C(F)(F)F | -42%
COc1ccc(CCn2nnnc2C2(c3ccc(C)cc3)CC2)cc1 | u
CCCC(=O)N1CCCN(c2nc(N)c3cc(OC)c(OC)cc3n2)CC1 | 6%

Next compounds:
SMILES | EPAC2 ant val
COc1cc(=O)n2c(c1C(=O)N(C)Cc1nonc1C)CCN(Cc1cc(F)ccc1F)CC2 | -5%
Cc1ccc(S[C@@H](CCN2CC[C@H](C)CCC2=O)c2ccccc2)cc1 | u
CCNc1ncc2ncc(=O)n(CCOC)c2n1 | 18%
COc1ccccc1CNc1cc(-c2ccccc2OC)ncn1 | -23%
COc1cc(=O)n2c(c1C(=O)NCc1ccco1)CCN(Cc1c(F)cccc1F)CC2 | 14%
COc1ccccc1-c1nccc(NCc2cnc(C)cn2)n1 | -16%
O=C1OC(CN2CCOCC2)CN1/N=C/c1ccc([N+](=O)[O-])o1 (stereo unspecified) | -22%[56.6 µM]
N[C@@H](CCS(=O)O)C(=O)O | -5%&2%
Nc1ncnc2n[nH]c(Nc3ccc(F)cc3)c12 | u
CCNc1ncc2nc(-c3ccc(Cl)cc3)c(=O)n(C)c2n1 | -11%
CCC1C(=O)NCCN1Cc1ccc2c(c1)CN(Cc1ccc(F)c(OC)c1)CCO2 (stereo unspecified) | -5%
COC(=O)N1CCC2(CCCN(C(=O)Nc3ccc(OC)cc3)C2)CC1 | -5%
CN1C2CC(OC(=O)[C@H](CO)c3ccccc3)CC1C1OC12 (stereo partly specified) | -11%
COc1ccc(-c2coc3cc(OC4OC(CO)C(O)C(O)C4O)cc(O)c3c2=O)cc1 (stereo unspecified) | -13%
Cc1[nH]c2ccccc2c1/C=C/c1ccc2ccccc2n1 | -14%

The last four compounds of the section before lead into the next.
SMILES | EPAC2 ant val
COC(=O)N1CCC2(CCCN(C(=O)Nc3ccc(OC)cc3)C2)CC1 | -5%
CN1C2CC(OC(=O)[C@H](CO)c3ccccc3)CC1C1OC12 (stereo partly specified) | -11%
COc1ccc(-c2coc3cc(OC4OC(CO)C(O)C(O)C4O)cc(O)c3c2=O)cc1 (stereo unspecified) | -13%
Cc1[nH]c2ccccc2c1/C=C/c1ccc2ccccc2n1 | -14%
O=C[C@H](O)[C@@H](O)[C@@H](O)[C@H](O)CO | -1%
CC(C)CN1CC2(CCN(C(=O)c3cnccn3)CC2)C1 | -19%
CCOC(=O)N1CCN(C(=O)c2ccc(-c3ccccc3OC)nc2N2CCC(N3CCCC(CO)C3)CC2)CC1 (stereo unspecified) | 4%
N#Cc1cccc(-c2ccc3ncnc(N4CCNCC4)c3c2)c1 | -27%
CN1CCN(c2ncc3nc(CCc4ccccc4)c(=O)n(Cc4cccs4)c3n2)CC1 | -20%
COc1cc2nc(C#Cc3nc4cc(OC)c(OC)cc4[nH]3)[nH]c2cc1OC | -1%
C=CCN1CCc2cc(O)c(O)cc2C(c2ccccc2)C1 (stereo unspecified) | -6%
COc1cccc(Cc2nc3cccnc3n2C2CCN(Cc3ccc(C)s3)CC2)c1 | 6%
CC(C)(C)NC[C@@H](O)COc1nsnc1N1CCOCC1 | -17%
O=C(O)C[C@H]1c2cc(C(F)(F)F)ccc2S(=O)(=O)N1C1CCCC1 | 0%
CC(NC(=O)c1ccco1)c1nnc2n1CCN(Cc1cccc(Cl)c1)CC2 (stereo unspecified) | 0%
CC1(C)[C@@H]2CC[C@@]1(C)C(=O)C2 | -26%&-10%
Cc1cnc(CNc2ccnc(-c3ccccc3C(F)(F)F)n2)cn1 | -15%
Cc1nc2cnc(N(C)C)nc2n(CCC#N)c1=O | -16%
CC(C)=CCC/C(C)=C/C=C/C(C)=C/C=C/C(C)=C/C=C/C=C(C)/C=C/C=C(C)/C=C/C=C(\C)CCC=C(C)C | 11%

New compounds follow
SMILES | EPAC2 ant val
O=C(O)COc1ccc(CCNS(=O)(=O)c2ccccc2)s1 | 22%
C[C@@H](O)[C@H]1C(=O)N2C(C(=O)O)=C(SCCN=CN)C[C@H]12 | 15%
COCC(=O)N1CCC2(CCCN(Cc3cc(C(F)(F)F)cc(C(F)(F)F)c3)C2)CC1 | u
O=C(O)CCNC(=O)c1ccc(N=Nc2ccc(O)c(C(=O)O)c2)cc1 | -28%
Cc1cccc2[nH]cc(/C=C3/C=Nc4ccccc43)c12 | -20%
CCC1CN(Cc2cn[nH]c2-c2ccc(F)cc2)Cc2cc(OC)ccc2O1 (stereo unspecified) | u
CC(C)[C@@H]1CC[C@@H](C)C[C@@H]1P(=O)(c1ccccc1)c1ccccc1 | -16%
O=C(Nc1cccc(F)c1)N1CCC2(CCNCC2)CC1 | -18%
CCOc1ccc2nc3cc(N)ccc3c(N)c2c1 | u
CCNc1ncc2nc(C)c(=O)n(-c3ccc(OC)cc3)c2n1 | 12%
CCOC(=O)OCC/C(SC(=O)OCC)=C(\C)N(C=O)Cc1cnc(C)nc1N | 3%
Cc1noc(C)c1C(=O)N1CCC[C@@]2(CCN(C(=O)Nc3cccc(F)c3)C2)C1 | -28%
C[C@H](CCC(=O)O)[C@H]1CC[C@H]2[C@@H]3C(=O)C[C@@H]4CC(=O)CC[C@]4(C)[C@H]3CC(=O)[C@]12C | u
Clc1ccccc1-c1nc(NCCN2CCOCC2)c2ccccc2n1 | -17%
CCOC(=O)c1cccnc1 | 5%

Remaining list, next part
SMILES | EPAC2 ant val
CCOc1nc2cccc(C(=O)OC(C)OC(=O)OC3CCCCC3)c2n1Cc1ccc(-c2ccccc2-c2nn[nH]n2)cc1 (stereo unspecified) | 56µM*
CC(O)(COc1ccccc1)c1ccc2c(c1)CN(Cc1cccc3ncccc13)CCO2 (stereo unspecified) | -21%
Cc1ccc2[nH]c(C(=O)NCc3nc(-c4cccc(NC(=O)c5cc(C)oc5C)c4)oc3C)cc2c1 | -11%
COCCn1c(=O)c(-c2ccc(OC)cc2)nc2cnc(Oc3ccc(OC)cc3)nc21 | -14%
O=C1Nc2ccccc2C(=O)N2CCC[C@@H]12 | 9%
COc1ccc(F)c(CN2CCC3(CCC(CNC(=O)c4cc(C)nn4C)O3)CC2)c1 (stereo unspecified) | -27%
COc1cccc(Cn2c(=O)c(-c3cccs3)nc3cnc(N(C)C)nc32)c1 | 5%
COC(=O)N1CCC2(CC1)CCN(c1ccccc1)CC2 | -20%
COc1ccc(CNc2ccnc(-c3ccc4c(c3)OCO4)n2)c(OC)c1 | -24%
c1csc(CNc2ncncc2-c2ccoc2)c1 | -28%
CC(=O)Oc1c(C)c(C)c2c(c1C)CC[C@@](C)(CCC[C@H](C)CCC[C@H](C)CCCC(C)C)O2 | -1%&-3%&16%
N[C@@H](Cc1ccc(F)cc1)C(=O)O | -15%
CC(=O)N1CCC[C@@]2(CCN(Cc3ccccc3)C2)C1 | -24%
Cc1ccc(C(C)(C)c2ccc(C)cc2)cc1 | 2%
COc1ccc(Oc2ncc3nc(-c4ccccc4)c(=O)n(CCC#N)c3n2)cc1 | -19%

(next part)
SMILES | EPAC2 ant val
CC[C@@H](C)[C@@H](N)C1=N[C@H](C(=O)N[C@@H](CC(C)C)C(=O)N[C@@H](CCC(=O)O)C(=O)N[C@@H](C(=O)N[C@@H]2CCCCNC(=O)[C@@H](CC(N)=O)NC(=O)[C@@H](CC(=O)O)NC(=O)[C@@H](Cc3cnc[nH]3)NC(=O)[C@@H](Cc3ccccc3)NC(=O)[C@@H]([C@H](C)CC)NC(=O)[C@@H](CCCN)NC2=O)[C@@H](C)CC)CS1 | -22%
CCC1CN(CCNC(=O)c2ccc(N3CCOCC3)cc2)Cc2cc(OC)ccc2O1 (stereo unspecified) | u
COCCn1c(=O)cnc2cnc(Nc3cccc(OC)c3)nc21 | -18%
CCCCC[C@H](O)C=C[C@H]1[C@H](O)CC(=O)[C@H]1CCCCCCC(=O)O | 56µM*
c1ccc(CN2CCC3(CCc4ccccc43)CC2)cc1 | 2%&-18%
COc1ccc2c(c1)-c1nc(-n3ncc(C(=O)N(C)CCO)c3C3CC3)ncc1CC2 | u
COc1ccc(CCCOC(Cn2ccnc2)c2ccc(OC)cc2)cc1 (stereo unspecified) | -50%[151 µM]
OC(Cn1cncn1)(Cn1cncn1)c1ccc(F)cc1F | -17%
COc1cccc(Cn2c(=O)c(C)nc3cnc(Oc4ccccc4)nc32)c1 | u
C(=Nc1cnc2ccccc2c1)c1ccc2ccccc2n1 | -5%
N[C@](CC1c2ccccc2Oc2ccccc21)(C(=O)O)[C@H]1C[C@@H]1C(=O)O | 4%
Cc1nc2cncnc2n(-c2ccccc2)c1=O | -27%
COc1cccc(Nc2ncc3ncc(=O)n(C4CC4)c3n2)c1 | -20%
COc1ccccc1C1CN(Cc2c(C)nc3sccn23)Cc2ccccc2O1 (stereo unspecified) | -14%
O=C(c1ccco1)N1CCC[C@@]2(CCN(Cc3ccccc3)C2)C1 | u

Some of the entries so far, with each value named.
COc1cc(=O)n2c(c1C(=O)NCc1ccco1)CCN(Cc1c(F)cccc1F)CC2
  EPAC2 ant val = 14%
COc1cccc(Nc2ncc3ncc(=O)n(C4CC4)c3n2)c1
  EPAC2 ant val = -20%
COc1ccccc1CNc1cc(-c2ccccc2OC)ncn1
  EPAC2 ant val = -23%

Following part:
SMILES | EPAC2 ant val
COc1cccc(-c2cncnc2NC2CCNCC2)c1 | -13%
COc1cccc(Cn2c(=O)c(-c3cc(F)cc(F)c3)nc3cnc(N4CCN(C)CC4)nc32)c1 | 2%
CC(C)=CCCC1(C)C=Cc2c(c(C)cc3c2[nH]c2ccccc23)O1 (stereo unspecified) | u
Cc1ncc2c(c1CNC(=O)/C=C/c1cccs1)CCN(C(=O)C1CC(=O)OC13CCCCC3)C2 (stereo unspecified) | -1%
Cc1c(O)cc2c(c1C)O[C@](C)(CCC[C@H](C)CCC[C@H](C)CCCC(C)C)CC2 | -46%
Cc1noc(C)c1-c1nc(N2CCOCC2)c2ccccc2n1 | 2%
CCCCc1cc2c(=O)c(C(=O)OC)c[nH]c2cc1OCc1ccccc1 | -16%
Nc1nc2c(ncn2C2CC(O)C(CO)O2)c(=O)[nH]1 (stereo unspecified) | -15%
N#Cc1ccc(CN2CC[C@@]3(CCCN(C(=O)c4ccncc4)C3)C2)cc1 | -11%
CCCCC[C@H](O)CC[C@H]1[C@H](O)CC(=O)[C@@H]1CCCCCCC(=O)O | -18%[11.4 µM]
Cc1nc2cnc(Nc3ccccc3)nc2n(Cc2ccc(F)cc2)c1=O | -24%
OC1CCC2Cc3ccccc3N=C12 (stereo unspecified) | -9%
Cc1cccc(CNc2nc(-c3ccc4c(c3)OCO4)nc3ccccc23)c1 | u

Source: PubChem
